B2AR ag: human beta-2 adrenergic receptor agonism by FAP; P07550; Am2.2-beta2AR cells, FAP receptor internalization, flow cytometry; reference of the scale not given here; response, % (concentration not given with the values); actives 0.43% (n = 340,000); AID 504454;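 active = response above a set limit, near 3 SD of response in nonfluorescent compounds, cut at about 42% in these data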;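 note: stock transfer was 100 nL into about 11 µL; a reference agonist was the positive control; negative values mostly stem from fluorescent compounds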
Target sequence (P07550 whole entry, looked up): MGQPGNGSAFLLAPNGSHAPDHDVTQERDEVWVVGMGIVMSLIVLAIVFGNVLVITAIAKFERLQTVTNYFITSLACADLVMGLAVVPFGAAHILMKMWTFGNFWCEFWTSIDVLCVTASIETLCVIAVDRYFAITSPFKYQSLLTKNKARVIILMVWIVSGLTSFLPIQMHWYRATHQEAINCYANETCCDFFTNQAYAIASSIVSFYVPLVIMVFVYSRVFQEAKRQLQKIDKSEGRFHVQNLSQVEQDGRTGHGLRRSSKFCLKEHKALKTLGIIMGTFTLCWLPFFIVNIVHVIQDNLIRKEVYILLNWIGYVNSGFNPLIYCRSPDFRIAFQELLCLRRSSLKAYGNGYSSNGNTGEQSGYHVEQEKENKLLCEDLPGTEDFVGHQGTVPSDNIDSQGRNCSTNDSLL
RanGTP-Imp inh: disruptors of Ran-importin-beta complex formation – biochemical, FRET, CFP-Ran, YFP-importin-beta, homogeneous, primary screen | cell-free CFP-Ran/YFP-importin-beta FRET ratio | inhibition, % (no concentration beside the values) | actives 1.1% (n = 300,000);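 active = most replicates above 15%; inconclusive = exactly half above 15%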;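 note: 0% = DMSO wells and 100% = Ran loaded with GDP instead of GTP; wells of about 40 µL received 100 nL stock; the first replicate is given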
T cruzi inh: blocks replication of Trypanosoma cruzi; T. cruzi beta-gal in NIH3T3, luminescence, 90 h; inhibition, % (concentration not given with the values); actives 1.4% (n = 300,000); AID 1885;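 active = mean inhibition across valid replicates above about 55%, limit read from the data; inconclusive = mean below that limit but half or more replicates reach it; inactive = mean below it, under half of replicates reach it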;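 note: signal also drops with host cell toxicity which is not excluded here; 0% = plate median of DMSO wells and 100% = zero luminescence signal; higher percent means less beta-gal luminescence so fewer parasites; stock transfer was 50 nL into about 50 µL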
Beta apoptosis: beta cell apoptosis inhibition; protection from apoptosis, % (concentration not given with the values); AID 435005; actives 0.8% (n = 300,000); INS-1E cytokine-induced death, ATP luminescence, 48 h; percent of positive-control rescue, neutral wells zero;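 active = all replicates at 75% or more, or half of them and the mean; inconclusive = half reach 75% but not the mean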;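 note: 0% = cytokine-treated negative control wells and 100% = positive control rescue; higher means more ATP so stronger rescue from cytokine killing; wells of about 40 µL received 100 nL stock; the first replicate is given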
UCH37 DUB inh: human UCH37 deubiquitinating enzyme inhibition. Q9Y5K5. purified proteasome/UCH37, Ub-AMC cleavage fluorescence. inhibition, % (concentration not given with the values). actives 0.33% (n = 330,000);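 active = mean of two replicates above 20%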;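 note: 0% = compound-free wells with enzyme and 100% = wells lacking proteasome; stock transfer was 100 nL into about 20 µL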
Target sequence (Q9Y5K5 whole entry, looked up): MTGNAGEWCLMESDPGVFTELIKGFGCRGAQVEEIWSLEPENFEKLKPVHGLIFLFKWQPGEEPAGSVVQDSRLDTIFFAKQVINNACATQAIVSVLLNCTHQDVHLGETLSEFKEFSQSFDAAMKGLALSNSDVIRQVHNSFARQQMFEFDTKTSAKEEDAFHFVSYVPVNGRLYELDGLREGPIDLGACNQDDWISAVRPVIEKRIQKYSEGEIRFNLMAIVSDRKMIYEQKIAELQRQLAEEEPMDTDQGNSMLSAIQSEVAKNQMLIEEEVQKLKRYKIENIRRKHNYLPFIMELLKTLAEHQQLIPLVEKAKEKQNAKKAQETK
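system = Proteasome-associated human UCH37 deubiquitinase | amount = 0.15 nM proteasome as dispensed | medium = pH 7.4 Tris-HCl (50 mM) with ovalbumin, ATP-MgCl2, DTT | incubation = 30 min preincubation with enzyme, 25 min cleavage at room temperature | detection = AMC fluorescence 355/460 nm | read-out basis = percent inhibition | controls = no-proteasome and no-compound wells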
Calb FLC: C. albicans growth modulation with fluconazole; C. albicans CaCi-2 (fluconazole-resistant clinical isolate) + fluconazole, Alamar Blue growth, 48 h; growth inhibition, % (no concentration beside the values); actives 0.57% (n = 300,000); AID 1979;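 active = most replicates above 75%; inconclusive = exactly half above 75%; inactive = most below 75%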;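 note: all wells also contain fluconazole at 8 µg/ml as a sub-toxic cotreatment; 0% = median of DMSO wells and 100% = median of geldanamycin control wells; wells of about 8 µL received 7.5 nL stock; the first replicate is given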
LANA-H2B inh: blocks KSHV LANA binding to histone H2A/H2B; Q9QR71; cell-free LANA-H2A/H2B peptide, fluorescence polarization; inhibition, % (no concentration beside the values); actives 0.6% (n = 320,000); AID 2629; in the data active = inhibition mostly above about 10%, no sharp cut-off; inactive = mostly below about 6.7%;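 note: stock transfer was 7.5 nL into about 10 µL; 0% = median of vehicle wells and 100% = median of positive control wells; one replicate is shown; the record names a cut of 25% in any replicate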
A1 inh: inhibitors of the anti-apoptotic protein A1, read as caspase activation; actives 0.066% (n = 330,000); MEF A1-2A-BIM cells, Caspase-Glo 3/7 luminescence, 3 h; percent of clofoctol response, vehicle zero; caspase activation, % (test concentration not listed); AID 2462;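 active = over half of replicate activation scores above 10%, or exactly half above 10 with the replicate mean above 10; inconclusive = replicate mean below 10 yet half the replicates above 10; inactive = over half of replicates below 10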;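 note: wells of about 30 µL received 50 nL stock; many hits fall short of the cut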
Starred values were filed as active, the others as inactive; ? = inconclusive; · = no result given.

SMILES	B2AR ag	RanGTP-Imp inh	T cruzi inh	Beta apoptosis	UCH37 DUB inh	Calb FLC	LANA-H2B inh	A1 inh
CCCc1nc(NCc2ccncc2)c2nnn(Cc3ccccc3F)c2n1	-3	-1.1	16	16	-0.9	-11	-5.7	-0.2
COc1cc(/C=C2/NC(=O)NC2=O)cc(Br)c1OCc1cccc(C(=O)O)c1	0	4.2	-20	·	5.5	1	0.4	0.2
CS(=O)(=O)N1CCN(c2ncnc3c2cnn3-c2ccccc2)CC1	5	-2.6	-12	-4	0.2	1	3.1	0.2
COc1ccc(N2C(=O)CS/C2=C\[N+](=O)[O-])cc1	-8	-2.2	-10	3	12	-11	-3.1	-0.4
O=C(NCc1ccccc1)C1CCCN(S(=O)(=O)c2cccnc2)C1 (stereo unspecified)	5	?	6	6	5.0	1	-5.1	1.3
CCOC(=O)N/N=C/c1c(C)c(C(=O)c2ccc(F)cc2)n2ccccc12	-6	0.8	14	0	·	-2	0.6	0.8
CC(CCc1ccccc1)NC(=O)COc1ccc(S(=O)(=O)N2CCOCC2)cc1[N+](=O)[O-] (stereo unspecified)	11	-2.7	22	5	1.7	-3	-3.0	0.0
COc1ccc(CNC(=O)c2coc(=O)c3ccccc23)cc1	3	5.6	-9	3	-1.1	2	-0.1	0.2
CC(=O)Nc1ccc(S(=O)(=O)N2CCC(c3nnc(-c4ccc(C)cc4)o3)CC2)cc1	-2	4.3	2	13	5.3	3	-1.0	-0.6
Oc1ccc(NC(=S)N=Nc2c(O)[nH]c3ccccc23)cc1	-5	-5.7	-35	3	4.7	-1	1.3	0.2
COc1cccc(NC(=O)Nc2ccncc2)c1	14	?	37	-6	1.5	?	-4.2	-4.8
Cc1cc(-c2ccccc2)nc(N/N=C/c2ccc([N+](=O)[O-])cc2)n1	4	-3.6	24	4	·	-2	3.6	0.6
CCC(=O)Nc1cccc(Br)c1	1	4.8	-4	-20	14	·	1.1	-1.1
CC(C)c1ccc(S(=O)(=O)N2CCCCC2)cc1	-3	-1.9	14	-2	3.1	-5	-5.1	-0.2
Cc1ccc(-c2nn(Cc3ccccc3)cc2C(=O)N2CCN(c3ccccn3)CC2)cc1	-3	·	·	-7	-0.4	·	11	3.0
CCCCNS(=O)(=O)c1ccc2nc(-c3cccnc3)cc(C(=O)NCCCOCC)c2c1	·	3.6	9	0	-2.4	?	1.3	1.2
Cn1c(SCC(=O)c2ccc3c(c2)NC(=O)CO3)nc2ccccc21	-9	-1.0	-7	-4	1.5	3	4.3	-0.1
COc1ccccc1OCC(=O)N/N=C/c1c(O)ccc2ccccc12	-6	2.8	-7	2	·	-13	-7.5	-0.2
C/C(N)=C(/C#N)C(=O)CSc1nnc(-c2ccccc2Br)o1	-6	1.1	-6	-9	4.0	-4	1.4	0.7
Cc1ccc(C)c(-n2nnnc2SCC(=O)NCCC2=CCCCC2)c1	-1	2.8	13	3	59*	3	1.7	·
CCCC/C(O)=C1\C(=O)CCCC1=NCCc1c(C)[nH]c2ccccc12	-6	1.4	10	-1	-3.0	8	-2.3	0.6
CC1=Nc2cc(C(=O)O)ccc2Sc2ccc(C)cc21	9	2.2	-8	-8	5.0	0	5.8	0.6
C=CCNC(=O)c1cc(Cl)ccn1	4	4.5	-20	-2	-1.4	13	5.5	0.4
Cc1c(C#N)c2ncn(Cc3ccccc3)c(=O)c2n1-c1ccccc1	1	5.0	13	-3	1.5	5	-5.9	-0.4
Cc1ccc(/C=C/C(=O)NC(=S)Nc2ccc(S(=O)(=O)Nc3cc(C)on3)cc2)cc1	-5	-0.1	-4	3	5.2	4	-4.9	-0.1

Only RanGTP-Imp inh, B2AR ag and A1 inh, for two of the compounds above:
SMILES	RanGTP-Imp inh	B2AR ag	A1 inh
CCOC(=O)N/N=C/c1c(C)c(C(=O)c2ccc(F)cc2)n2ccccc12	0.8	-6	0.8
CC(CCc1ccccc1)NC(=O)COc1ccc(S(=O)(=O)N2CCOCC2)cc1[N+](=O)[O-] (stereo unspecified)	-2.7	11	0.0

The list continues.
SMILES	B2AR ag	RanGTP-Imp inh	T cruzi inh	Beta apoptosis	UCH37 DUB inh	Calb FLC	LANA-H2B inh	A1 inh
COCCN(Cc1cc2cc3c(cc2nc1Cl)OCO3)C(=O)Nc1ccccc1OC	-4	-4.6	11	0	0.0	2	1.2	1.4
O=S(=O)(Nc1ccc2c(c1)OCO2)c1ccc(Cl)cc1F	0	·	·	-1	0.7	·	1.8	-1.0
O=C(O)c1cc(-c2ccc(/C=N/N3C(=O)C4C5C=CC(C6CC56)C4C3=O)o2)ccc1Cl (stereo unspecified)	-5	5.1	-2	-2	·	-1	5.7	1.0
Cn1cccc1CC(=O)N/N=C\c1cccs1	-8	-4.3	-9	-1	·	?	0.1	0.3
CCc1cc2c(=O)c(-c3nc4ccccc4[nH]3)coc2c(CN2CCCCC2)c1O	-18	-2.3	-9	-4	-1.0	6	-0.9	-0.5
Cc1cc(C)cc(OCC(=O)O/N=C(\N)c2ccccn2)c1	4	3.1	-6	2	·	-8	1.6	-0.6
O=C(CN1CCN(S(=O)(=O)c2ccc(F)cc2)CC1)c1ccc(O)c(O)c1	10	4.7	-17	-1	4.9	-5	·	-0.1
COc1cccc2c1Oc1ncccc1N(C(=O)CCC(=O)NCc1ccc(C)cc1)C2	4	-4.2	-14	-6	1.4	17	-1.8	0.9
CC(C)n1c(SCC(=O)Nc2ccc(F)cc2)nnc1C1CC1	3	-0.5	5	-6	0.9	2	3.6	0.2
Cc1cc(NC(=O)c2ccc3c(c2)C(=O)N(Cc2cccnc2)C3=O)no1	-6	-0.5	-11	-3	3.4	24	1.0	0.5
Cc1ccc(NC(=O)COc2ccc(/C=N\NC(=O)c3cccnc3)cc2)cc1C	6	6.0	-2	0	·	5	-0.1	0.3
COc1ccc(CNC(=O)CSc2n[nH]c(N)n2)cc1OC	6	-2.0	1	-3	5.7	3	0.1	-0.1
CC1CCCCN1CC(O)COc1ccc(OCC(O)CN2CCCCC2C)cc1 (stereo unspecified)	4	4.0	-14	4	0.6	6	-3.1	0.2
COc1cccc(Nc2ccc(Nc3cccc(OC)c3)nn2)c1	14	3.4	-9	-3	3.7	5	-1.8	0.1
Cc1ccc2c(c1)CCCN2C(=O)CSc1ccccc1	-15	-4.4	10	-3	0.0	-6	-2.4	0.2
COc1ccc(/C=C/C(=O)O)cc1S(=O)(=O)NCC1CCCO1 (stereo unspecified)	-4	-2.7	-17	-3	2.5	-5	-1.2	-0.1
CCOc1ccc(NC(=O)CCC(=O)NNC(=O)c2cccc([N+](=O)[O-])c2)cc1	-1	·	·	-12	-0.4	·	0.5	0.3
CCc1cccc(NC(=O)CCCn2nc(CC)n3c(cc4occc43)c2=O)c1	-5	2.1	-3	-1	4.0	54	-5.0	0.1
CCCn1c(C)cc(C(=O)CN2C(=O)c3cccc(N)c3C2=O)c1C	0	·	·	-8	-75	·	-1.3	-1.2
Cc1cc(C)cc(OCCCOc2cccc3cccnc23)c1	17	-2.9	17	7	0.1	-8	-2.1	0.5
Cc1cc2cc(C)c3nnc(SCC(=O)Nc4ccc(S(=O)(=O)N5CCCCC5)cc4)n3c2cc1C	4	4.9	9	4	5.8	2	2.3	-1.3
Cc1cc(C)n2nc(SCc3ccc(F)cc3Cl)nc2n1	-11	-2.5	4	5	0.9	-3	-1.1	-0.6
CN(c1cccc(NC(=O)c2ccccc2N(Cc2ccccc2)S(C)(=O)=O)c1)S(C)(=O)=O	-15	1.5	-10	-3	2.3	0	-0.1	0.1
O=C(CCC1CCCN(C(=O)Cc2cccc(F)c2)C1)N1CCN(c2ccccn2)CC1 (stereo unspecified)	1	1.5	3	1	-4.1	6	2.3	0.0
COc1ccc(OC)c(S(=O)(=O)N2CCN(C(=O)c3ccco3)CC2)c1	-6	0.2	6	-4	2.5	0	-2.3	0.7

6 entries already listed, sorted by their value in LANA-H2B inh, smallest number first:
SMILES	B2AR ag	RanGTP-Imp inh	UCH37 DUB inh	LANA-H2B inh
COc1ccc(N2C(=O)CS/C2=C\[N+](=O)[O-])cc1	-8	-2.2	12	-3.1
COc1ccc(CNC(=O)c2coc(=O)c3ccccc23)cc1	3	5.6	-1.1	-0.1
O=S(=O)(Nc1ccc2c(c1)OCO2)c1ccc(Cl)cc1F	0	·	0.7	1.8
Cc1cc2cc(C)c3nnc(SCC(=O)Nc4ccc(S(=O)(=O)N5CCCCC5)cc4)n3c2cc1C	4	4.9	5.8	2.3
CS(=O)(=O)N1CCN(c2ncnc3c2cnn3-c2ccccc2)CC1	5	-2.6	0.2	3.1
C=CCNC(=O)c1cc(Cl)ccn1	4	4.5	-1.4	5.5

Additional structures follow:
SMILES	B2AR ag	RanGTP-Imp inh	T cruzi inh	Beta apoptosis	UCH37 DUB inh	Calb FLC	LANA-H2B inh	A1 inh
CCOC(=O)CCNC(=O)N1CCCC(C(=O)c2ccccc2SC)C1 (stereo unspecified)	9	?	8	-1	3.8	-1	7.1	0.2
CC(=O)c1ccc(N(CC(=O)NC2CCCCC2)C(=O)c2csnn2)cc1	3	-4.8	0	-5	·	0	0.9	-0.5
CS(=O)(=O)N1CCc2cc(S(=O)(=O)NCCNS(=O)(=O)c3ccc4c(c3)CCN4S(C)(=O)=O)ccc21	2	1.5	-1	·	4.9	33	7.6	-0.5
O=C(NCCCN1CCCCC1)C1CCN(S(=O)(=O)N2CCC3(CC2)OCCO3)CC1	9	0.6	-6	-3	0.9	-1	-7.5	-0.2
O=S(=O)(NCC1CCCO1)c1cc(Cl)ccc1Br (stereo unspecified)	-2	2.6	-14	0	4.1	-31	4.3	1.4
Cc1onc(-c2ccccc2)c1C(=O)Nc1ccc(C(=O)N2CCCCC2)cc1	-3	1.5	-7	·	1.7	1	-1.2	1.6
CC(=O)c1c(C)nc2cc(Cl)ccc2c1N	-9	5.1	25	8	5.4	?	-0.7	-0.2
COC(=O)[C@H](Cc1ccccc1)NC(=O)NCc1ccc(C)cc1	6	-1.4	-6	-7	0.6	-6	-7.0	1.1
Cc1cccc(OCC(=O)NCc2nc(-c3ccccc3)no2)c1	2	3.5	-7	-6	3.3	2	3.6	-0.1
Cc1ccc(NC(=O)c2ccc(NCCc3ccccc3)c([N+](=O)[O-])c2)cc1F	-3	1.4	10	2	4.3	-3	-2.2	-0.7
COc1ccc(N(CC(O)Cn2c3ccccc3c3ccccc32)S(=O)(=O)c2ccccc2)cc1 (stereo unspecified)	15	0.0	17	5	2.5	7	-1.0	-0.2
CCn1c(SCC(=O)N(Cc2ccccc2)C2CCS(=O)(=O)C2)nc2ccccc2c1=O (stereo unspecified)	-11	20*	2	-1	4.6	19	1.4	-0.4
COc1ccc(-c2csc(NC(=O)CN3C(=O)CCC3=O)n2)c(OC)c1	-1	0.7	-3	-9	4.7	7	-4.2	0.7
Cc1[nH]c(=O)[nH]c(=O)c1/C=N/NC(=O)[C@H](C)NC(=O)OC(C)(C)C	2	0.3	-14	-9	·	7	3.3	0.8
Cc1ccc(-n2nnnc2SCc2ccc(C(=O)O)cc2)cc1C	9	-2.7	-8	1	-0.9	-9	1.5	0.2

Screening data (PubChem BioAssay)
